VACV E9 pol inh: inhibitors of vaccinia virus processive DNA synthesis (E9 polymerase); 0.94% of 46,000 active; in vitro processive DNA synthesis, absorbance read-out; stronger effect = lower value; some inactives read as strong as hits; normalized absorbance, % (test concentration not listed);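 active = replicate mean up to 90% and picked by the depositor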;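 also: 100% = median of the test wells of a plate; 100 nL library stock went into each well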
* marks the source's active call; other numbers are inactive results.

SMILES	VACV E9 pol inh
Cn1nc(-c2ccc(S(=O)(=O)NCc3cccs3)s2)cc1C(F)(F)F	110.9
CCOC(=O)c1cnc2cc(-c3ccccc3)[nH]n2c1=O	105.9
N#CC1=C(N)C(C#N)(C#N)[C@@H](c2cccc(Cl)c2)[C@@H]2CSCC=C12	99.6
O=C(c1ccco1)n1c(=S)nc2ccccn21	100.5
O=S(=O)(NCc1ccccc1Cl)c1ccc2nc(-c3ccccc3)[nH]c2c1	100.0
O=C(CSc1nnc(-c2cccc(Cl)c2)o1)NC1CCCCC1	96.6
COC(Cn1c(-c2ccccc2)cc(C2=C(O)CC(C)(C)CC2=O)c1-c1ccccc1)OC	100.1
COCC(C)NCc1cccc2ccccc12 (stereo unspecified)	76.5
CC12CCC(C1)C(C)(C)C2OCC(O)CN1CCN(c2cccc(C(F)(F)F)c2)CC1 (stereo unspecified)	98.8
Fc1c(F)c(C(F)(F)F)c(F)c2c1Oc1cc(Cl)c(Cl)cc1O2	99.7
CC1CC(CCC(=O)Nc2ccc(S(N)(=O)=O)cc2)C(=O)O1 (stereo unspecified)	102.8
CSc1ccc(S(=O)(=O)Nc2ccc(N3CCOCC3)c(Cl)c2)cc1	100.3
O=C(Nn1cnnc1)c1cccc(C(F)(F)F)c1	97.0
O=C(OCc1cccs1)c1ccco1	102.5
CCOC(=O)CSc1c(-c2cccs2)[nH]c2ccccc12	99.5
CCOc1ccc(N(C)S(=O)(=O)c2ccc3[nH]cc(C(=O)NCC4CCCO4)c(=O)c3c2)cc1 (stereo unspecified)	94.7
CN(C)CCNC(=O)c1nc(-c2cccnc2)no1	110.3
COc1cc(C(=O)Nc2nc3ccc(C)cc3s2)cc(OC)c1OC	104.0
CC1SCC(=O)N(CC(=O)Nc2ccccc2C(F)(F)F)C1=O (stereo unspecified)	92.0
O=C(O)c1ccc(COc2ccccc2/C=C2\NC(=O)N(Cc3ccccc3)C2=O)cc1	99.0
COc1cc(COc2ccc3c4c(c(=O)oc3c2)CCC4)cc(OC)c1OC	99.7
CCOC(=O)C1=C(C)NC(SCc2ccc(C(=O)O)cc2)=NC1c1ccc(OCC)cc1 (stereo unspecified)	101.0
Cc1cc(C(=O)Nc2cccnc2)no1	100.2
COc1ccc(CCNC(=O)c2cn(C3CCCC3)c(=O)c3c2c2ccccc2n3C)cc1OC	101.8

4 of these compounds, reformatted.
CN(C)CCNC(=O)c1nc(-c2cccnc2)no1
  VACV E9 pol inh: 110.3

COc1cc(C(=O)Nc2nc3ccc(C)cc3s2)cc(OC)c1OC
  VACV E9 pol inh: 104.0

CC1SCC(=O)N(CC(=O)Nc2ccccc2C(F)(F)F)C1=O (stereo unspecified)
  VACV E9 pol inh: 92.0

O=C(O)c1ccc(COc2ccccc2/C=C2\NC(=O)N(Cc3ccccc3)C2=O)cc1
  VACV E9 pol inh: 99.0

Returning to the listing; the 4 compounds before the break are reprinted first.
SMILES	VACV E9 pol inh
COc1cc(COc2ccc3c4c(c(=O)oc3c2)CCC4)cc(OC)c1OC	99.7
CCOC(=O)C1=C(C)NC(SCc2ccc(C(=O)O)cc2)=NC1c1ccc(OCC)cc1 (stereo unspecified)	101.0
Cc1cc(C(=O)Nc2cccnc2)no1	100.2
COc1ccc(CCNC(=O)c2cn(C3CCCC3)c(=O)c3c2c2ccccc2n3C)cc1OC	101.8
CC(NC(=O)/C=C/c1cccc2ccccc12)c1ccccc1 (stereo unspecified)	98.7
O=C(Nc1ncnc2sc3c(c12)CCCCC3)c1ccco1	91.3
CN1CCN(C(=O)NCC23CC4CC(CC(C4)C2)C3)CC1	98.3
O=C(CN1CCN(Cc2ccc(F)cc2Cl)C1=O)NCc1ccc(Cl)cc1	84.2
CSc1cccc(NC(=O)C2COc3ccccc3O2)c1 (stereo unspecified)	100.9
Cc1cc(C)c2nc(NC(=O)Cc3ccccc3)sc2c1	98.4
CCn1c(=S)[nH]c2ccccc21	99.8
O=C(COc1ccccc1C(=O)O)Nc1ccccc1F	79.7
O=C(O)c1ccc2c(c1)NC(=O)C1CCCN21 (stereo unspecified)	47.5*
COc1ccc(C(=O)CN2C(=O)COc3ccccc32)cc1	94.6
CCC(CO)NC(=O)/C=C/c1ccc(OC)c(OC)c1 (stereo unspecified)	96.8
CCc1ccc(NC(=O)NCCN2CCc3ccccc3C2)cc1	97.4
CC(C)N(C(=O)c1ccc(-c2nnc(-c3ccccc3)o2)cc1)C(C)C	99.1
CC(C)(C)NC(=O)c1cccc2c1-c1ccccc1C2=O	94.9
Cc1nn(-c2ccc(Cl)cc2)c(N)c1C1(O)C(=O)N(C)c2ccccc21 (stereo unspecified)	97.0
COc1ccc(O)c(C=NCCc2ccccc2)c1	88.1
Cc1ccc(S(=O)(=O)NC(=O)c2ccc(Cl)nc2Cl)cc1	99.6
C(=NN1CCN(C2c3ccccc3-c3ccccc32)CC1)c1cccs1	99.6
COc1cc(CCc2cc(OC)c(C)cc2OC)c(OC)cc1C	100.1
O=C(Nc1ccccc1)C1C2C=CC(C2)C1C(=O)Nc1ccccc1 (stereo unspecified)	102.1
CC(Oc1ccccc1)C(=O)N1CC(=O)Nc2ccc(F)cc2C1c1ccccc1 (stereo unspecified)	99.8
CN(C)c1ccc(C2=CC=CC(=C3C=CC(=[N+](C)C)C=C3)O2)cc1	39.3*
CCn1cc(-c2ccc3ccccc3n2)c(=S)c2ccccc21	99.9
COc1ccc(CNC(=O)COc2ccc(C#N)cc2)cc1	96.4
Cc1sc(/N=C/c2ccco2)c(C#N)c1C	99.6
CCc1ccc(-n2c(=O)oc3ccc(Cl)cc3c2=O)cc1	100.0
CC(O)c1nc2ccccc2n1CCc1ccccc1 (stereo unspecified)	92.2
CCCC(=O)c1c(O)[nH]c(=O)[nH]c1=O	100.1
Cc1sc(NC(=O)c2ccco2)c(CN2CCc3ccccc3C2)c1C	77.6
COC(=O)c1ccc(C(=O)OC)c2c(C(=O)OC)ccc(C(=O)OC)c12	95.6
O=C(c1cncc(NS(=O)(=O)c2ccc(Cl)cc2)c1)N1CCCc2ccccc21	89.4
COC(CNC(=O)c1cccc(NS(=O)(=O)c2ccc(C)cc2)c1)OC	93.9
CC[n+]1c(C)sc2ccc(CC(=O)[O-])cc21	90.4
O/N=C1\CCC\C1=C/c1ccco1	94.5
COc1ccc(CCNC(=O)c2n[nH]c(=O)c3ccccc23)cc1OC	103.4
CCOC(=O)c1cc(C)n(CC2CCC(C(=O)N3CCCC3)CC2)c1C (stereo unspecified)	102.3

By substructure: the entries above with a cyano group (3)
SMILES	VACV E9 pol inh
N#CC1=C(N)C(C#N)(C#N)[C@@H](c2cccc(Cl)c2)[C@@H]2CSCC=C12	99.6
COc1ccc(CNC(=O)COc2ccc(C#N)cc2)cc1	96.4
Cc1sc(/N=C/c2ccco2)c(C#N)c1C	99.6

Next entries
SMILES	VACV E9 pol inh
CC(=O)Oc1cc(C)cc2oc(=O)cc(-c3ccccc3)c12	98.5
O=C1C2C3C=CC(O3)C2C(=O)N1c1ccccc1C(F)(F)F (stereo unspecified)	98.6
COc1ccc(OC)c(C2N(Cc3ccccc3C)CCN2Cc2ccccc2F)c1 (stereo unspecified)	75.0
Cc1cc(C)nc(SCCc2ccncc2)n1	105.6
CCn1cc(/C=C2/C(=O)N(c3ccccc3)c3ccccc32)c2ccccc21	103.9
CCC(Sc1nnc(-c2c[nH]c3ccccc23)n1CC)C(=O)OC (stereo unspecified)	91.2
O=S(=O)(CCN1CCN(C(c2ccccc2)c2ccccc2)CC1)C(F)(F)F	99.1
Cc1nnnn1CC(=O)Nc1ccc(F)cc1	100.0
COc1ccccc1/C=C1\CC/C(=C\c2ccccc2OC)C1=O	105.9
Cc1cc(Cl)ccc1OC1C(=O)N(c2cccc(C(F)(F)F)c2)C1c1ccc2c(c1)OCO2 (stereo unspecified)	98.2
Cc1nn(Cc2cccc3ccccc23)c(C)c1NC(=O)C1CC1c1ccccc1 (stereo unspecified)	100.9
CC1=CC(=O)c2ccccc2C1=O	94.5
COc1ccc(-n2ncc(NC(=O)Nc3ccc4c(c3)OCCCO4)c2C)cc1	100.7
CC1(C)CC(/C=C/c2ccccn2)=Cc2c1sc(N)c2C#N	98.4
CNC(=O)C(C)n1sc2ccccc2c1=O (stereo unspecified)	101.4
Cc1ccc(C(=O)N/C(=C\c2ccccc2)C(=O)Nc2c(C)n(C)n(-c3ccccc3)c2=O)cc1	98.1
NC(=O)c1cccc(C(N)=O)c1	98.8
CCOC(=O)CSC1=C(C#N)C(c2ccccc2Cl)C(C(=O)Nc2ccccc2OC)=C(C)N1 (stereo unspecified)	98.7
CCOc1cc(/C=C2/SC(=O)NC2=O)ccc1OCC(=O)O	99.4
O=C(O)c1ccccc1-c1ccc(C(F)(F)F)cc1	100.5
BrCc1ccc(-c2noc(-c3ccncc3)n2)cc1	21.0*
Cc1ccc(S(=O)Cc2ccc(C(=O)N3CCN(C(=O)c4ccco4)CC3)o2)cc1 (stereo unspecified)	102.5
COc1ccc2oc(=O)c(-c3cnc(C)s3)cc2c1	100.8
CCOC(=O)c1c(C)nn(-c2ccnc3cc(Cl)ccc23)c1C	112.0
O=c1cc(O)c(-c2cccc(C(F)(F)F)c2)c(Cl)[nH]1	107.2
COc1ccc(-c2nnc3n(Cc4ccccc4)c(=O)c4ccccc4n23)cc1	99.4
NCCNC(=O)Cc1ccc(O)cc1	98.4
O=C(Nc1ccccc1)OC1CCCCC1	102.3
O=C(CN1CCN(Cc2ccccc2)C1=O)NCCc1ccccc1	103.7
c1ccc2nc3c(nc2c1)c1ccccc1n3CCN1CCOCC1	65.3*
Cc1ccc(C)c(SCC(=O)OCC(=O)c2ccc(F)cc2)c1	98.1
CCc1cccc(C)c1NC(=O)c1ccc(OC(C)=O)cc1	100.7
CSc1nsc(SCC(=O)OC2CC(C)CCC2C(C)C)n1 (stereo unspecified)	95.0
O=C(NC(NCCc1c[nH]c2ccccc12)(C(F)(F)F)C(F)(F)F)c1ccccc1	100.4
Cc1ccc(C(=O)C2=C(O)C(=O)N(CC3CCCO3)C2c2cccc(Cl)c2)o1 (stereo unspecified)	92.2
c1ccc(-c2cn3c4ccccc4nc3n2CCCN2CCOCC2)cc1	94.0
CCN1CCN(CC(O)COc2ccc(C(=O)OC)cc2)CC1 (stereo unspecified)	99.5
CC1CCCC(NC(=O)CC2Nc3ccccc3NC2=O)C1C (stereo unspecified)	107.9
O=C(Nc1cc(Cl)nc(NC(=O)C2CCCC2)n1)C1CCCC1	106.0
Cc1cccn2cc(CCNC(=O)CC3CCCCC3)nc12	100.4
CCc1ccc(NC(=O)Nc2ccc3c(c2)N(C)C(=O)c2ccccc2S3)cc1	106.4
Cc1ccc(Nc2nc3ccccc3[nH]2)cc1	99.5
COC(=O)c1ccc(CSC(=S)N(C)C)cc1	98.5
O=C1NC(=Nc2ccccc2)S/C1=C/c1cccs1	100.7
COCCN1C(=O)c2ccccc2C(C(=O)N2CCCC2)C1c1c[nH]c2ccccc12 (stereo unspecified)	105.8
Cc1ccc(CNS(=O)(=O)N(C)C)cc1	97.9
O=C(CCn1c(=O)oc2ccccc21)NCCc1ccccc1	87.0
Cc1cccc(-c2noc(CNC(=O)C(C)(C)Oc3ccc(Cl)cc3)n2)c1	98.7
COC(=O)c1ccc(-c2ccco2)n1CC(=O)NC1CCCC1	104.9
COc1ccc(-c2nnc3ccc(SCC(N)=O)nn23)cc1	102.1
C=C(C)C(=O)Nc1ccc(O)cc1C(=O)O	97.4
CC(=O)Nc1cc(C)nn1C(C)(C)C	94.9
CC1CN(Cc2c(-c3ccccc3)nc3ccc(Cl)cn23)CC(C)O1 (stereo unspecified)	102.8
O=C(O)CCCNC1=NCCS1	89.7
CC12CCCCC1CCC2NCCCCCCN1C(=O)C=CC1=O (stereo unspecified) (tested in a mixture with another compound)	98.7
COCC(=O)NCCc1nc2ccccc2n1Cc1cc(C)ccc1C	98.9
Cc1cc(C(=O)Nc2cc(C(F)(F)F)ccc2N2CCCC2)n(C)n1	93.0
CSC(=S)N(C)c1ccccn1	97.7
CC(=O)Nc1nc2ccccc2nc1Cl	92.8
COc1cccc2cc(-c3nc4ccccc4s3)c(=O)oc12	99.2
(next part)
SMILES	VACV E9 pol inh
O=C1CSC(=Nc2ccccc2)N1Cc1ccccc1	99.2
O=C(O)C(Cc1ccccc1)NS(=O)(=O)c1cccs1 (stereo unspecified)	101.7
C=CCN1C(=O)/C(=C2/C(=O)N(CCC)c3ccc(Br)cc32)SC1=S	96.4
O=C(CSc1nc2c(sc3ccccc32)c(=O)n1Cc1ccccc1)NCCC1=CCCCC1	94.5
CC1CCN(C(=O)c2ccc3c(c2)C(=O)N(CCC2=CCCCC2)C3=O)CC1	93.8
CCCCN1Cc2c(n(CC(=O)c3ccc(OC)cc3)c3cc(-c4ccccc4)nn3c2=O)C1=O	95.1
Cc1ccc(CNC(=O)c2nc3c(nnn3Cc3ccco3)c(=O)[nH]2)cc1	102.2
O=C(CCN1C(=O)/C(=C/c2ccccc2)SC1=S)Nc1ccccc1	100.7
CCC(CC)NC(=O)Cc1ccccc1OC	94.1
CCCC(=O)n1c(=O)oc2cc(Br)ccc21	100.0
Cc1ccc(S(=O)(=O)N2Cc3ccccc3C2)cc1	100.1
Cc1cc(C)n2nc(SCc3ccc(Cl)cc3)nc2n1	98.6
O=C1CCc2c(ccc3ccccc23)O1	99.7
COc1ccccc1NC(=S)N(Cc1ccccc1)Cc1cccn1Cc1ccc(F)cc1Cl	100.3
CCCS(=O)(=O)c1c(S(=O)(=O)CCC)c2c(N)cccn2c1C(=O)c1ccc(C)cc1	100.2
CCCS(=O)(=O)N1CCC(C(=O)N2CCC3(CC2)OCCO3)CC1	100.7
CC1CCCC(C)N1C(=O)COC(=O)c1ccccc1Oc1ccccc1 (stereo unspecified)	100.9
COc1ccc2c(C)cc3nncn3c2c1	77.7*

Screening data as filed in PubChem.

This is a subset; the hit share may differ from the screen's.
